Source: PubChem
HPGD block: qHTS Assay for Inhibitors of HPGD (15-Hydroxyprostaglandin Dehydrogenase) | purified HPGD, NADH fluorescence kinetic, PGE2 substrate | Potency, µM, for the others: top-dose activity change, negative = inhibition, actives largely listed as inhibitors | 150,000 compounds, 4.3% hits | AID 894, 2007; active = well fitted inhibition curve with a large enough effect (not every such curve was filed as active); inconclusive = small, poorly fitted or top-dose-only effect, or another doubt; inactive = no such curve, though single readings can be large or run the other way;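 further: top concentration of the series not given in the record; plate controls included wells without enzyme; inactives centre near -10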
Target sequence (P15428 whole entry, looked up): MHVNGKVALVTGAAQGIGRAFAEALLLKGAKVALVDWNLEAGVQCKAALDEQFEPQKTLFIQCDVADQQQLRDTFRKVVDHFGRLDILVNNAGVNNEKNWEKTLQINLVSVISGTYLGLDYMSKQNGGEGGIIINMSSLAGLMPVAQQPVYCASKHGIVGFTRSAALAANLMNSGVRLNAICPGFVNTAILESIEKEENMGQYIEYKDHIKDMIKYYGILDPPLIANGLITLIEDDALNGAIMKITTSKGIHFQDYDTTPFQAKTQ
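20 nM HPGD preincubated 15 min at room temperature with compound in 50 mM Tris-HCl pH 8, 0.01% Tween 20. Started with 1 mM NAD+ and 30 uM prostaglandin E2; NADH fluorescence (360/450 nm) read 5 times over 30-s intervals, last minus first.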
An asterisk follows results filed as active. On the % scale 0 is the no-effect control and ±100 the full control effect; potency means the concentration at half of the fitted maximal effect. Not all compounds are listed; rates above refer to the full screens.

Cc1cc(C(=O)Nc2ccc3c(c2)OCCO3)co1 was read as HPGD block -24%.
c1ccc(-c2ccc(OCCOCCn3cncn3)cc2)cc1 was read as HPGD block -25%.
For CCCC(=O)NC(C)C(c1cccs1)N1CCN(C)CC1 (configuration not stated) the results were HPGD block -1%.
Screening O=C(Nc1nc(COc2ccccc2)cs1)c1ccccc1F returned HPGD block -3%.
Screening O=C(NC1CCCCC1)N(CCO)Cc1cc2cc3c(cc2[nH]c1=O)OCCO3 returned HPGD block inconclusive.
For Cc1ccc(SCCNC(=O)CN2C(=O)c3ccccc3S2(=O)=O)cc1 the results were HPGD block 0%.
`CCN1CCN(Cc2ccc(NC(=O)Nc3ccc(OC)cc3)cc2)CC1` gave HPGD block -6%.
Screening O=[N+]([O-])c1cccc(/C=N/Nc2nc(N3CCOCC3)nc(N3CCOCC3)n2)c1 returned HPGD block -4%.
For COc1cc(NC(=O)CS(=O)(=O)c2ccc(C)cc2)cc(OC)c1OC the results were HPGD block -3%.
`S=C(Nc1ccccc1Cl)NC1CCN(Cc2ccccc2)CC1` gave HPGD block -7%.
Screening CC(C)(C)NCc1cc2ccccc2[nH]c1=O returned HPGD block inconclusive.
Screening O=c1cc(CO)oc(C(Nc2cccc([N+](=O)[O-])c2)c2ccccn2)c1O (configuration not stated) returned HPGD block -16%.
`CN(C)N=C1c2cc(S(=O)(=O)N3CCOCC3)ccc2-c2ccc(S(=O)(=O)N3CCOCC3)cc21` gave HPGD block -21%.
`Cc1nc2cc(C(=O)NCCN3CCOCC3)ccc2n1-c1ccc(F)cc1F` gave HPGD block -11%.
O=C(Nc1ccc(F)cc1Cl)c1ccc2c(=O)n3c(nc2c1)CCCCC3 was read as HPGD block 4%.
Cn1c(=O)n(-c2cccc(Cl)c2)c(=O)n1C was read as HPGD block -4%.
Cc1noc(/C=C/c2ccco2)c1S(=O)(=O)N1CCC(C(=O)N2CCc3ccccc3C2)CC1 was read as HPGD block 20µM*.
`COc1ccc2cc3c(N)c(C(=O)NCc4ccco4)sc3nc2c1` gave HPGD block inconclusive.
`C=CCOc1cccc(C2/C(=C(/O)c3ccc(Cl)cc3)C(=O)C(=O)N2CCN2CCOCC2)c1` (configuration not stated) gave HPGD block -8%.
For O=C(CSc1nc2c([nH]c3ccccc32)c(=O)n1-c1cccc(Cl)c1)N1CCOCC1 the results were HPGD block -18%.
For C/C(CC(=O)Nc1ccccn1)=N\NC(=O)C(=O)Nc1ccccc1C the results were HPGD block inconclusive.
CN(C)S(=O)(=O)c1ccc(C(=O)N2CCCC2c2nc3ccccc3s2)cc1 (configuration not stated) was read as HPGD block 1%.
O=C(NNc1cc(N2CCOCC2)nc(N2CCOCC2)n1)c1ccc(Cl)cc1Cl was read as HPGD block -10%.
`Cc1cccc(NC(=O)CSc2nc(N)cc(N)n2)c1` gave HPGD block -13%.
`Cc1cccc2[nH]c(-c3ccc(NC(=O)c4ccco4)cc3)nc12` gave HPGD block inconclusive.
Screening O=C(NC1CCCCC1)c1ccc(S(=O)(=O)NCc2ccco2)cc1 returned HPGD block -4%.
For Cc1cc(Nc2ncc(Cl)cc2Cl)n(-c2ccccc2C)n1 the results were HPGD block -17%.
Screening C/C(=N\NC(=O)COc1ccc(C)cc1C(C)C)c1ccc(-n2ccnc2)cc1 returned HPGD block -14%.
C/C(Cn1cnc([N+](=O)[O-])n1)=N/NC(=O)COc1ccccc1Cl was read as HPGD block -6%.
For N#Cc1ccccc1/C=N/Nc1nc(-c2ccccc2)c2cc(Cl)ccc2n1 the results were HPGD block -5%.
CCC1CCC/C1=N\NC(=O)c1cc(C)[nH]n1 (configuration not stated) was read as HPGD block -8%.
`Cc1ccc(S(=O)(=O)Nc2ccc(SC(F)F)cc2)c(C)c1` gave HPGD block -17%.
`O=C(OC(C(=O)NCc1cccs1)c1ccccn1)c1cccs1` (configuration not stated) gave HPGD block -17%.
O=c1oc2cc(N=Cc3ccc4c(c3)OCO4)ccc2c2ccccc12 was read as HPGD block -14%.
Screening Cc1ccc(Cn2c(SCC(=O)Nc3cccc(C)n3)nc3c2c(=O)n(C)c(=O)n3C)cc1 returned HPGD block -19%.
Screening CN(C)CCCN=Cc1c(O)n(Cc2ccccc2)c(=O)c2ccccc12 returned HPGD block -16%.
`COC(=O)c1ccc(NC(=O)C2CC2)o1` gave HPGD block -11%.
Screening CCN(C(=O)c1cccnc1)c1ccccc1 returned HPGD block -2%.
For COc1ccc(-c2cc(C(=O)Nc3ccc(Cl)cc3Cl)c3ccccc3n2)cc1OC the results were HPGD block inconclusive.
Screening CSc1cccc(NC(=O)CSc2ccc(Cl)cc2)c1 returned HPGD block -6%.
For COCC(=O)N1CCC[C@@]2(CCN(C(=O)Nc3cccc(F)c3)C2)C1 the results were HPGD block 0%.
Screening Fc1cccc(/C=N/NC(=S)Nc2ccccc2Cl)c1 returned HPGD block -7%.
`O=C([C@H](O)c1ccccc1)N1CCC[C@H]1CO` gave HPGD block -2%.
Screening CC(=O)c1c(C)oc2ccc(NS(=O)(=O)c3ccc(O)c(C(=O)O)c3)cc12 returned HPGD block inconclusive.
Cc1cccc2nc(CSc3nc4[nH]ncc4c(=O)n3-c3ccccc3Cl)cc(=O)n12 was read as HPGD block -29%.
`CO/N=C/c1ccc(Sc2ccc(C)cc2)c([N+](=O)[O-])c1` gave HPGD block -12%.
For COCCCN1C(=O)C(O)=C(C(=O)c2ccc(C)o2)C1c1cccc(Br)c1 (configuration not stated) the results were HPGD block -10%.
COCCn1c(SCC(=O)c2c[nH]c3ccccc23)nnc1-c1ccncc1 was read as HPGD block -5%.
`CCNc1nc(NC(C)(C)C)nc(N2CCCC2)n1` gave HPGD block -7%.
CCOC(=O)C1=C(C)NC2=C(C(=O)C(C(=O)OCC)C(c3ccc(OC)cc3)C2)C1c1ccccn1 (configuration not stated) was read as HPGD block inconclusive.
For CC1CCCCN1C/C=C/c1ccccc1[N+](=O)[O-] (configuration not stated) the results were HPGD block 2%.
COc1cccc(Nc2nnc(SCC(=O)N3CCOCC3)s2)c1 was read as HPGD block -20%.
CS(=O)(=O)CCCCN=C=S was read as HPGD block -10%.
Screening CC1O[C@@H](O[C@H]2C(Oc3cc(O)c4c(c3)OC(c3ccc(O)cc3)CC4=O)OC(CO)C(O)C2O)C(O)C(O)C1O (some centres not stated) returned HPGD block -4%.
For NC1=NCCCC1 the results were HPGD block -5%.
For CCn1c(SCC(=O)Nc2cc(NC(C)=O)ccc2OC)nnc1-c1ccncc1 the results were HPGD block -3%.
Screening CC12CCC(c3c(C(=O)O)nn(-c4ccccc4)c31)C2(C)C (configuration not stated) returned HPGD block -6%.
`CN(C)CC1CCCCC1C1(O)c2ccccc2CSc2sccc21` (configuration not stated) gave HPGD block -6%.
`COc1cc(/C=N/NC(N)=S)ccc1OCC(=O)N1CCOCC1` gave HPGD block -5%.
O=C(Nc1c(C(=O)Nc2cccc3ccccc23)cnn1-c1ccccc1)c1ccco1 was read as HPGD block -5%.
O=C1CCCC/C1=C\Nc1ccccc1C(=O)O was read as HPGD block inconclusive.
O=S(=O)(c1ccc2c(c1)OCCO2)N1CCN(c2nc3ccccc3s2)CC1 was read as HPGD block -16%.
COc1ccc(N2C(=O)CC(NC3CCCCNC3=O)C2=O)cc1 (configuration not stated) was read as HPGD block 0%.
Screening CCn1c(=N)n(CC(O)c2ccccc2)c2ccccc21 (configuration not stated) returned HPGD block -3%.
`Cc1cccc(C)c1NC(=O)CN(C)CC(=O)Nc1ccccc1Br` gave HPGD block 1%.
O=C(CCN1C(=O)c2ccccc2C1=O)OCn1nnc2ccccc2c1=O was read as HPGD block -12%.
For CC(C)(C)OC(=O)N1CCC(c2c(C(=O)O)cnn2-c2ccccc2Cl)CC1 the results were HPGD block 2%.
`CCOc1ccc(CNC(=S)NCc2ccc(OCC)cc2)cc1` gave HPGD block -5%.
CC1=C(C(=O)Nc2ccccc2)C(c2cccs2)n2nnnc2N1 (configuration not stated) was read as HPGD block -8%.
Screening CCOC(=O)C1=C(C)Nc2ccccc2N=C1NC(=O)C(CC)c1ccccc1 (configuration not stated) returned HPGD block -17%.
For CCOC(=O)N1CCN(C(=O)CC(=O)Nc2ccc3nc4n(c(=O)c3c2)CCCCC4)CC1 the results were HPGD block -18%.
COc1cccc(-c2cc(C(=O)Nc3c(C)n(C)n(-c4ccccc4)c3=O)no2)c1 was read as HPGD block -28%.
`COc1ccccc1CN1CCCC2(CCN(C(=O)c3cccn3C)CC2)C1` gave HPGD block -10%.
COc1ccc(C2NC(c3ccc(OC)cc3)C(c3ccccc3)C(=O)C2c2ccccc2)cc1 (configuration not stated) was read as HPGD block -17%.
Screening Cc1ccc(N(CC(=O)Nc2c(C)n(C)n(-c3ccccc3)c2=O)S(C)(=O)=O)cc1C returned HPGD block -11%.
Screening O=c1c(C(c2ccccc2)c2c(O)sc3ccccc3c2=O)c(O)sc2ccccc12 returned HPGD block -12%.
COc1ccc(-c2nnc(NC(=O)c3cc(C)on3)s2)cc1 was read as HPGD block -22%.
`Cc1ccc(N/C(SCc2ccccc2C)=C(/C#N)C(=O)NCc2ccco2)cc1C` gave HPGD block -14%.
Screening Cc1ccc(C(=O)NCc2ccco2)cc1S(=O)(=O)N1CCCCC1 returned HPGD block -4%.
Screening COCC(=O)Nc1cc(=O)n(C)c(=O)n1C returned HPGD block -7%.

An excerpt from above in order of SMILES length, smallest number first:
Screening COCC(=O)Nc1cc(=O)n(C)c(=O)n1C returned HPGD block -7%.
Screening CCn1c(=N)n(CC(O)c2ccccc2)c2ccccc21 (configuration not stated) returned HPGD block -3%.
`CCOc1ccc(CNC(=S)NCc2ccc(OCC)cc2)cc1` gave HPGD block -5%.
COc1ccc(-c2nnc(NC(=O)c3cc(C)on3)s2)cc1 was read as HPGD block -22%.
COc1ccc(N2C(=O)CC(NC3CCCCNC3=O)C2=O)cc1 (configuration not stated) was read as HPGD block 0%.
CC1=C(C(=O)Nc2ccccc2)C(c2cccs2)n2nnnc2N1 (configuration not stated) was read as HPGD block -8%.
Screening Cc1ccc(C(=O)NCc2ccco2)cc1S(=O)(=O)N1CCCCC1 returned HPGD block -4%.
`COc1ccccc1CN1CCCC2(CCN(C(=O)c3cccn3C)CC2)C1` gave HPGD block -10%.
O=C(CCN1C(=O)c2ccccc2C1=O)OCn1nnc2ccccc2c1=O was read as HPGD block -12%.
Screening CCOC(=O)C1=C(C)Nc2ccccc2N=C1NC(=O)C(CC)c1ccccc1 (configuration not stated) returned HPGD block -17%.
O=S(=O)(c1ccc2c(c1)OCCO2)N1CCN(c2nc3ccccc3s2)CC1 was read as HPGD block -16%.
`Cc1ccc(N/C(SCc2ccccc2C)=C(/C#N)C(=O)NCc2ccco2)cc1C` gave HPGD block -14%.
COc1ccc(C2NC(c3ccc(OC)cc3)C(c3ccccc3)C(=O)C2c2ccccc2)cc1 (configuration not stated) was read as HPGD block -17%.
Screening Cc1ccc(N(CC(=O)Nc2c(C)n(C)n(-c3ccccc3)c2=O)S(C)(=O)=O)cc1C returned HPGD block -11%.

Other compounds follow.
Screening COc1ccc(Cc2ccc3[nH]c(=O)cc(C)c3c2)cc1S(=O)(=O)O returned HPGD block -7%.
For Cc1ccc(S(=O)(=O)CCc2nnc(NC(=O)c3cccs3)s2)cc1 the results were HPGD block 1%.
c1ccc(-n2cnc3cc(NCc4cccs4)ccc32)cc1 was read as HPGD block inconclusive.
Screening Cc1ccc(S(=O)(=O)N2CCCN(c3nc4cc(C)ccc4cc3C#N)CC2)cc1 returned HPGD block inconclusive.
NC(=O)CNC1CC(=O)N(CCc2ccccc2)C1=O (configuration not stated) was read as HPGD block -7%.
`CC(=O)c1ccc(OCCCC(=O)Nc2cccc(S(=O)(=O)N(C)C)c2)cc1` gave HPGD block -5%.
For CNS(=O)(=O)c1ccc(NC(=O)c2ccc(Cl)cc2Cl)cc1 the results were HPGD block -25%.
Screening CCN(CC)c1ccc2oc(=O)c(C)nc2c1 returned HPGD block -17%.
Cc1ccc(S(=O)(=O)NN=C2CCN(Cc3ccccc3)CC2)cc1 was read as HPGD block -4%.
Screening CCOCC(=O)Nc1cccc(OC)c1 returned HPGD block inconclusive.
Screening O=C(O)[C@H]1C(=CCO)O[C@H]2CC(=O)N12 returned HPGD block -20%.
CCOC(=O)c1ccc(NC(=O)CN(C)S(=O)(=O)c2ccc(OC)cc2)cc1 was read as HPGD block -5%.
For COc1cc(C2c3cc4c(cc3C(O[C@@H]3OC5COC(c6cccs6)OC5C(O)C3O)C3COC(=O)C23)OCO4)cc(OC)c1O (some centres not stated) the results were HPGD block -3%.
`COc1ccc(CN(C(=O)c2ccc3c(c2)OCCO3)C(C(=O)NC2CCCCC2)c2ccc3ncccc3c2)cc1` (configuration not stated) gave HPGD block -4%.
For CC1=CCC2([N+](=O)[O-])CN(CC(=O)O)CC1([N+](=O)[O-])C2 (configuration not stated) the results were HPGD block -16%.
CCCS(=O)(=O)n1nc(-c2ccccc2)cc1N was read as HPGD block -13%.
`CCCNc1nc(OCC(F)(F)F)nc(OCC(F)(F)F)n1` gave HPGD block -4%.
For Cc1ccc(-c2csc(NC(=S)NC(=O)c3cccs3)n2)cc1 the results were HPGD block -3%.
For CC(C)Cn1c(SC(C)C(=O)Nc2ccc(N3CCOCC3)cc2)nc2ccccc21 (configuration not stated) the results were HPGD block -2%.
`CCOC(=O)CN(C(=O)CNC(=O)c1cccs1)C(C(=O)NC1CCCCC1)c1cccnc1` (configuration not stated) gave HPGD block -8%.
For CN1CCN(C(=O)CCc2nc3ccccc3c(=O)[nH]2)CC1 the results were HPGD block -8%.
For COc1cccc(C(=O)NCC2CCCO2)c1 (configuration not stated) the results were HPGD block 8.9µM*.
CC1(C)CC(=O)C(C=Nc2ccc3c(c2)OCO3)=C(O)C1 was read as HPGD block -23%.
`CC(C)C(=O)Nc1cccc(C(=O)NCCc2ccc(S(N)(=O)=O)cc2)c1` gave HPGD block -2%.
For Cc1csc(NC(=O)CN2CCCCCC2)n1 the results were HPGD block -8%.
O=S(=O)(c1ccc(Br)s1)N1CCc2ccccc2C1 was read as HPGD block -29%.
